FGF22 binding – binders of recombinant human FGF22 by thermal shift; Q9HCT0; SYPRO orange fluorescence; percent of sucrose octasulfate shift, DMSO zero; actives 1.5% (n = 340,000); calls only at 9.99 µM;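 active = melting point raised past a set limit in the mean and every replicate; inconclusive = no clear call; three in four hits are not shown here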
Target sequence (Q9HCT0 whole entry, looked up): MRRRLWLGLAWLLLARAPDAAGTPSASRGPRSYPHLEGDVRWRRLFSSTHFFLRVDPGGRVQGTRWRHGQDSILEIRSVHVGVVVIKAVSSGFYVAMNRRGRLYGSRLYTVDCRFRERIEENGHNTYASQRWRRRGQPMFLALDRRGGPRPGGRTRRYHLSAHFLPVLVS
RanGTP-Impb inh – disruptors of Ran-importin-beta complex formation – biochemical, FRET, CFP-Ran, YFP-importin-beta, homogeneous, primary screen | AID 2216 | inhibition, % (concentration not given with the values) | cell-free CFP-Ran/YFP-importin-beta FRET ratio | actives 1.1% (n = 300,000);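 active = most replicates above 15%; inconclusive = exactly half above 15%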;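 also: 0% = DMSO wells and 100% = Ran loaded with GDP instead of GTP; wells of about 40 µL received 100 nL stock; the first replicate is given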
UCH37 DUB inh – inhibitors of human deubiquitinating enzyme UCH37. Q9Y5K5. purified proteasome/UCH37, Ub-AMC cleavage fluorescence. inhibition, % (no concentration beside the values). actives 0.33% (n = 330,000). AID 588478;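 active = mean of two replicates above 20%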;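 also: 0% = compound-free wells with enzyme and 100% = wells lacking proteasome; stock transfer was 100 nL into about 20 µL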
Target sequence (Q9Y5K5 whole entry, looked up): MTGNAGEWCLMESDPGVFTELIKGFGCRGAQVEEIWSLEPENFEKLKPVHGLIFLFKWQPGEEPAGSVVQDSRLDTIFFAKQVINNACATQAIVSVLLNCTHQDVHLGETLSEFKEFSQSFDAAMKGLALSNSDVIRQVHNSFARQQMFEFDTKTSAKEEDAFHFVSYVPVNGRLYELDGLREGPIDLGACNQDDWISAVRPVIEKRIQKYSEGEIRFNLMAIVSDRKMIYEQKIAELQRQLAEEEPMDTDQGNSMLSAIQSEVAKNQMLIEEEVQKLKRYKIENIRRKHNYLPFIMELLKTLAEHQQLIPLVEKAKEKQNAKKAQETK
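Material: Human UCH37 enzyme supplied as purified proteasome complex | Schedule: 30 min preincubation with enzyme, 25 min cleavage at room temperature | Detection: AMC fluorescence 355/460 nm | Measure: % inhibition of Ub-AMC cleavage fluorescence | Controls: Wells without proteasome as full block, compound-free enzyme plus substrate as uninhibited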
AF4-AF9 inh – MLL-AF4/AF9 protein interaction inhibition; AlphaScreen, biotin-AF4 peptide binding to FLAG-AF9; actives 0.47% (n = 350,000); inhibition, % at 10 µM; P42568;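 active = every replicate reaching a set inhibition limit, whatever the replicate mean, cut at about 25% in these data; inconclusive = mean inhibition reaches that limit but some replicates miss it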;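 also: 0% = plate neutral control median and 100% = total signal loss; the record names both 10 and 1 µM as test concentration; the first replicate is given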
Target sequence (P42568 whole entry, looked up): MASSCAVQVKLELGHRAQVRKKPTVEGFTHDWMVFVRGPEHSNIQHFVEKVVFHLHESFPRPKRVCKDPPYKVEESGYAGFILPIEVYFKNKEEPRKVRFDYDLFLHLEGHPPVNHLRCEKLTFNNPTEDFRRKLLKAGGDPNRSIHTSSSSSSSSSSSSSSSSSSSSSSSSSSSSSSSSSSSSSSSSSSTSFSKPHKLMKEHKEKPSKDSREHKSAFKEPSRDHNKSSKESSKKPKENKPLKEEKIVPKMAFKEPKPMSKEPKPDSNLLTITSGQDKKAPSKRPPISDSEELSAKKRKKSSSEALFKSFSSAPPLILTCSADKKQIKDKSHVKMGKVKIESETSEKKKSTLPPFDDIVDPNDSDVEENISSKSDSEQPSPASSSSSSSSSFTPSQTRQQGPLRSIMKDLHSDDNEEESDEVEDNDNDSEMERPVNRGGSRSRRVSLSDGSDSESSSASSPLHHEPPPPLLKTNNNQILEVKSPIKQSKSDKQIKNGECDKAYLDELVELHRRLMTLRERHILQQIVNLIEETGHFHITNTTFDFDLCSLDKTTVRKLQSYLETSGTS
HNF4A DNA FP – change in binding of human HNF4 alpha to DNA. AID 1224865. activity change, % at 10 µM. P41235. actives 0.3% (n = 360,000). HNF4a-FITC DNA binding, fluorescence polarization, 1 h; in the data active = activity change above about 30%, passing the limit was not always enough;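 also: controls were the assay level and a saturating level of protein; the project sought stronger binding though the title names inhibitors; some compounds called inactive have numbers as strong as hits; positive values seem to mean higher polarization but the record does not say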
E coli growth – blocks Escherichia coli growth; OD600, 23 h; active compounds read low; OD600 absorbance (test concentration not listed); actives 0.21% (n = 330,000); AID 1053175;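 active = OD600 absorbance below the run mean of sample wells minus 3.6 SD, in any replicate, cut at about 0.56 in these data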;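 also: stock transfer was 300 nL into about 60 µL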
Vif TR-FRET – inhibitors of Vif binding to APOBEC3G peptide, primary screen, biochemical, TR-FRET, GST-Vif 1-94, biotin-A3G peptide, dose response retest (AID 1117319); TR-FRET GST-Vif / biotin-A3G peptide binding; higher % means a stronger effect; test concentration not given here; strong numbers were not always called active; inhibition, %, or IC50 in µM where a hit was titrated; actives 0.57% (n = 260,000);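 active = above the screen mean plus three standard deviations and confirmed in dose response; inconclusive = results disagree or hit not tested in dose response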;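 also: Vif residues 1-94 fused to GST binding biotinylated APOBEC3G peptide 110-148; 0% = full assay without inhibitor and 100% = GST in place of GST-Vif; retest series ran down from 100 µM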
The depositor's hits bear a star; i = inactive; u = inconclusive; x = no result given; & = joins results of further samples. This is a subset; count on the stated rates, not on these rows.

Below each compound – FGF22 binding	RanGTP-Impb inh	UCH37 DUB inh	AF4-AF9 inh	HNF4A DNA FP	E coli growth	Vif TR-FRET
1: COc1ccc(CN2CCN(C(=O)CCC(=O)Nc3nnc(C(F)(F)F)s3)CC2)cc1F
    i	1.3	0.6	-3.3	-3.0	0.7	x
2: COc1cccc(N2CCN(C(=O)c3nc4nc(C)cc(C)n4n3)CC2)c1
    i	-4.7	2.7	-1.1	-4.8	0.69	x
3: C=CCN1C(=O)C2C(C(=O)NC)C3C=CC2(O3)C1C(=O)NCc1ccc(OC)cc1 (stereo unspecified)
    x	0.9	-0.5	x	1.7	0.72	2%
4: Cc1ccc(NC(=O)CCNC(=O)c2ccccc2Cl)cc1S(=O)(=O)N1CCOCC1
    i	x	4.4	3.8	-4.3	0.71	x
5: Cc1ccc(NC(=O)c2ccco2)c(NC(=O)Cc2cccs2)c1
    x	5.3	2.4	x	-3.2	0.67	-13%
6: CC(C)n1cc(CN2CCCC(CNS(=O)(=O)c3cccc4cccnc34)C2)cn1 (stereo unspecified)
    i	5.1	1.4	1.5	1.0	0.74	11%
7: NS(=O)(=O)c1cccc(NC(=O)c2cccc(S(=O)(=O)N3CCCCCC3)c2)c1
    i	x	4.7	2.3	-4.2	0.71	1%
8: CC(C)c1ccc(S(=O)(=O)N2CCN(C(=O)c3cccc(F)c3)CC2)cc1
    x	-0.6	5.4	x	3.3	0.67	29%
9: N#CC(C#N)=Cc1ccc(NC(=O)c2ccc(Br)cc2)cc1
    i	-1.4	1.7	4.4	-0.1	0.65	-6%
10: Clc1ccc(OCCSc2ncccn2)cc1
    x	-1.7	3.9	x	-2.2	0.66	3%
11: Cc1cccc(OCC(=O)NCC(=O)N/N=C/c2cccs2)c1
    x	-14	x	x	-0.8	x	-1%
12: CCOc1ccc(NC(=O)CN(C)C(=O)CN2C(=O)C3CCCCC3C2=O)cc1OCC (stereo unspecified)
    i	x	5.4	-1.0	4.3	0.68	18%
13: O=C(NC1CCCCC1)c1ccc(CS(=O)Cc2ccccc2Cl)o1 (stereo unspecified)
    i	-1.2	-0.1	0.0	3.1	0.69	-5%
14: CC(C)n1c(/C=C/c2ccccc2)nc2ccccc21
    x	3.2	-61	x	1.0	x	x
15: CCOc1cc(/C=C(\CC(=O)O)c2nc3ccccc3s2)ccc1OC
    i	3.5	-8.0	-1.1	3.3	0.71	11%
16: CC(=O)N1CC2(C)CN(C(C)=O)CC(C)(C1)C2O (stereo unspecified)
    x	4.8	2.1	x	2.3	0.69	-2%
17: CC(Oc1ccccc1)C(=O)N1CCC2(CC1)Oc1ccc(F)cc1C(=O)C21CC(c2ccc(Cl)cc2)=NO1 (stereo unspecified)
    i	-1.7	1.8	5.3	-4.5	0.74	x
18: CN(C)S(=O)(=O)c1cccc(NC(=O)COC(=O)[C@H](Cc2ccccc2)NC(=O)c2ccco2)c1
    i	x	0.0	2.3	-0.2	0.68	-9%
19: CCN(CC)c1c(-c2ccccc2)c2cc(C)ccc2[nH]c1=O
    i	7.3	-61	-4.7	-5.8	0.76	5%
20: CC(C)(C)NS(=O)(=O)c1ccc(NS(=O)(=O)Cc2ccccc2)cc1
    x	6.4	0.6	x	-0.7	0.7	1%

Ordered by the number under HNF4A DNA FP (largest number first): 3 of the compounds above
Below each compound – FGF22 binding	RanGTP-Impb inh	UCH37 DUB inh	AF4-AF9 inh	HNF4A DNA FP	E coli growth	Vif TR-FRET
8: CC(C)c1ccc(S(=O)(=O)N2CCN(C(=O)c3cccc(F)c3)CC2)cc1
    x	-0.6	5.4	x	3.3	0.67	29%
7: NS(=O)(=O)c1cccc(NC(=O)c2cccc(S(=O)(=O)N3CCCCCC3)c2)c1
    i	x	4.7	2.3	-4.2	0.71	1%
4: Cc1ccc(NC(=O)CCNC(=O)c2ccccc2Cl)cc1S(=O)(=O)N1CCOCC1
    i	x	4.4	3.8	-4.3	0.71	x

The listing continues:
Below each compound – FGF22 binding	RanGTP-Impb inh	UCH37 DUB inh	AF4-AF9 inh	HNF4A DNA FP	E coli growth	Vif TR-FRET
21: O=C1c2ccccc2C(=O)c2c(NCCCN(CCO)CCO)cccc21
    i	3.3	3.6	u	14	0.68	-5%
22: CCOC(=O)N1CCC(N2C(=O)c3ccc(C(=O)NCCC(C)C)cc3C2=O)CC1
    i	-0.1	0.2	-0.8	2.7	0.71	-1%
23: CCN(CC)S(=O)(=O)c1ccc(Cl)c(C(=O)Nc2nnc(C)s2)c1
    x	-0.6	0.4	x	-0.8	0.69	30%
24: Oc1ccc(C2=CSC3=NCCN23)cc1O
    i	6.2	1.9	0.0	1.3	0.68	0%
25: CCN(CC)S(=O)(=O)c1ccc(N2CCCCC2)c(NC(=O)C2CCN(C(=O)c3ccc(F)cc3)CC2)c1
    i	-1.4	1.7	1.9	-0.8	0.67	-1%
26: COC(=O)[C@H](Cc1ccccc1)NC(=O)[C@@H](N)CC(=O)OCc1ccccc1
    i	x	0.7	0.9	1.2	x	x
27: C=CCNC(=O)/C=C/c1ccc(C(C)C)cc1
    x	6.1	2.4	x	2.9	0.63	0%
28: Cc1ccc(NC(=O)Cc2sc(C)nc2-c2ccc(C)cc2)cc1
    x	-5.3	1.8	x	2.8	0.67	x
29: CC(Sc1nnc2ccccn12)C(=O)Nc1ncc(Cl)cc1Cl (stereo unspecified)
    x	-4.8	-8.0	x	1.9	0.72	4%
30: CCC(C)(C)NC(=O)CN(Cc1ccco1)C(=O)CCC(=O)Nc1nccs1
    i	-4.1	0.2	-1.6	1.9	0.71	x
31: CC(=O)c1c(N2CCOCC2)nc(=S)n(-c2ccccc2)c1C
    x	-1.4	1.7	x	1.1	0.66	7%
32: CCCNC(=O)C1(C)CCCN(C(=O)c2c(C)noc2C)C1 (stereo unspecified)
    i	x	x	-1.1	0.6	x	x
33: O=C(Nc1ccc(Cc2ccncc2)cc1)c1ccc(N2CCOCC2)c([N+](=O)[O-])c1
    i	-1.4	3.5	6.2	-0.7	0.68	30%
34: CC(Sc1nccn1C)C(=O)Nc1ccc(Cl)cn1 (stereo unspecified)
    x	2.3	2.5	0.6	-2.5	0.64	-2%
35: O=C(CNC(=O)c1cccs1)NCCN1CCC(Cc2ccccc2)CC1
    i	u	-0.8	4.4	x	0.7	11%
36: Nc1nc(C23CC4CCC(CC(C4)C2)C3)cs1
    x	3.4	3.5	x	-1.3	0.66	-4%
37: CC1(C)Cc2c(sc3nc(NCCN4CCOCC4)n4ncnc4c23)CO1
    x	-4.6	5.5	x	-1.2	0.71	32%
38: CCOC(=O)c1nn(-c2ccc(Cl)cc2)c2nc(-c3ccc(C)cc3)c(C#N)c(=O)n12
    x	5.5	-50	x	-0.2	0.68	-4%
39: NC(=O)Cn1nc(-c2ccccc2)nc1-c1ccccc1
    i	1.9	4.5	4.9	-1.3	0.64	x
40: CCCn1c(SCC(=O)Nc2ccc(C)c(S(=O)(=O)N3CCOCC3)c2)n[nH]c1=O
    i	2.5	-0.7	-1.2	4.2	0.7	x
41: C[C@@H]1CN([C@@H](C)CO)C(=O)CCCn2nncc2CO[C@H]1CN(C)Cc1ccc(C(F)(F)F)cc1
    i	x	x	0.7&1.3&-1.5	0.9	x	x
42: COc1ccc(C(=O)N/N=C/c2ccc(OC)c(CN3CCN(c4ccc(F)cc4)CC3)c2)cc1
    i	4.7	x	-0.7	0.6	x	x
43: FC(F)(F)c1cnc(COc2cc(Cl)cc(Cl)c2)c(Cl)c1
    i	1.9	2.1	-1.2	-1.9	0.69	u
44: COc1ccc(N2CCN(C3CCCN(S(=O)(=O)c4ccccc4)C3)CC2)cc1 (stereo unspecified)
    i	3.3	3.2	6.0	1.7	0.65	4%
45: CC=C1OC(n2cnc3c(N)ncnc32)C(O)C1O (stereo unspecified)
    i	x	x	-1.7	2.7	x	x
46: Cc1cc(C(=O)N2CCN(C(c3ccccc3)c3ccccc3)CC2)on1
    i	0.2	5.2	-8.7	-0.4	0.77	4%
47: NC(=O)C1c2ccccc2Oc2ccccc21
    i	-0.5	5.2	-1.4	4.1	0.66	-10%
48: Cc1ccc(C)c2c1cc(C)c1nnc(SCC(=O)N3CCCc4ccccc43)n12
    x	0.1	-0.2	x	0.2	0.71	x
49: O=C1C=C(NCc2ccco2)CCC1
    i	2.7	0.7	1.8	-1.7	0.64	8%
50: C=CCCc1ccc(C#N)c(SCc2c(C(=O)OCC)c3cc(OC(C)=O)c(Br)cc3n2C)n1
    x	-6.0	1.4	x	5.5	0.73	x
51: O=C(NCC(c1cccs1)N1CCOCC1)C1CCN(S(=O)(=O)c2ccccc2C(F)(F)F)CC1 (stereo unspecified)
    i	5.2	1.6	-4.4	-0.8	0.67	x
52: O=c1c2ccccc2nc(SCc2cn3ccsc3n2)n1-c1ccccc1
    x	1.4	2.9	x	0.1	0.71	-2%
53: CC(C)Oc1ccc(CN2CCCC(CO)(Cc3ccccc3)C2)cc1CO (stereo unspecified)
    i	-0.6	-0.9	3.1	3.5	0.71	x
54: Cc1ccc(-c2[nH]ncc2C(=O)c2ccccc2C)c(O)c1
    i	-3.5	-1.3	-1.8	2.1	0.67	x
55: CCCCN(CC)S(=O)(=O)c1ccc(C(=O)Nc2nnc(-c3cccs3)o2)cc1
    x	2.4	1.3	x	x	0.71	1%
56: O=[N+]([O-])c1ccc(CSc2ncnc3ccccc23)cc1
    i	1.6	2.4	3.0	3.4	0.71	-3%
57: COc1ccc(C)cc1S(=O)(=O)N(CC(=O)O)c1ccccc1
    x	-1.1	-0.5	x	-2.2	0.73	u
58: Cc1ccc2nc(NC(=O)CN(C)S(=O)(=O)c3cccc4nsnc34)sc2c1
    x	-0.1	1.9	x	-2.3	0.75	3%
59: CC(C)(CO)Nc1nc(Nc2ccccc2)nc(Nc2ccccc2)n1
    x	-1.7	0.9	x	-0.5	0.74	18%
60: COc1cccc(NS(=O)(=O)Cc2ccccc2)c1
    x	-3.3	4.3	x	-0.2	0.66	-13%
61: OCCN(Cc1ccccc1)Cc1ccccc1F
    x	u	3.0	x	5.5	0.65	u
62: CC(C)(C)c1ccc(OCC(O)CN2CCOCC2)cc1 (stereo unspecified)
    i	1.0	3.6	1.4	-0.4	0.64	x
63: CCC(OC(=O)CN1C(=O)C(=O)c2ccccc21)C(=O)Nc1ccccc1OC (stereo unspecified)
    x	-0.4	0.9	-4.7	3.2	0.63	x
64: Cn1nc(-c2ccc(Cl)cc2)cc1NC(=O)CSCC(=O)O
    i	4.6	1.2	-1.9	7.7	0.68	-2%
65: CCOC(=O)c1cc(-c2ccccc2C)nn1Cc1cc(CC)no1
    i	x	-0.4	x	1.0	0.67	x
66: Cc1ccc(OCC(=O)N2CCN(S(=O)(=O)c3ccc4c(c3)OCCO4)CC2)c(C)c1
    i	x	-0.7	3.6	-2.6	0.71	x
67: NNC(=O)c1ccc(O)cc1O
    i	2.8	-33	-2.8	-1.6	0.7	15%
68: CCN(CC)CC(=O)N1c2ccccc2Sc2ccccc21
    i	u	5.1	2.7	-1.8	0.67	-6%
69: CCCNC(=O)c1ccc2nc(-c3ccccc3)c(-c3ccccc3)nc2c1
    x	1.9	-61	x	0.7	0.69	-2%
70: CN1CCN(S(=O)(=O)c2cccc(C(=O)N(Cc3ccccc3)c3ccccc3)c2)CC1
    i	5.0	0.5	-7.3	-0.1	0.7	0%
71: C=CCN1C(=O)/C(=C/c2cccs2)S/C1=N\S(=O)(=O)c1ccc(F)cc1
    i	-0.7	x	6.7	-0.1	x	x
72: CCCCSCCCNC(=O)C1CCC(CNS(=O)(=O)c2ccccc2)CC1 (stereo unspecified)
    i	-1.3	-0.6	2.4	4.3	0.7	-6%
73: CN(C)c1ccc(C(c2ccc(N(C)C)cc2)c2ccc([N+](=O)[O-])cc2)cc1
    i	1.3	5.2	27*	4.4	0.69	20%
